# Sa growth inh: inhibitors of Staphylococcus aureus growth at 42 °C. S. aureus RN4220 growth, OD600, 20 h; hits give low values. relative growth, % (concentration not given with the values). 0.53% of 170,000 active. AID 720641;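 active = growth at 42 °C up to 50% and 20 or more points under that at 30 °C, or under 10% at both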;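 also: 300 nL library stock went into each well; scaled to the means of positive and negative controls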
# GIV Gai3 FP: inhibitors of GIV GBA-motif binding to rat Galpha-i3; AID 1224905; percent of control (FP), % (concentration not given with the values); 0.42% of 210,000 active; Galpha-i3/FITC-GIV peptide fluorescence polarization, 90 min; hits give low values; scaled: aluminum fluoride 0%, vehicle 100%;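 active = replicate mean at 85% of control or lower, very high polarization wells dropped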;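 also: wells of about 15 µL received 100 nL stock; the first replicate is given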
# Target sequence (P08753 whole entry, looked up): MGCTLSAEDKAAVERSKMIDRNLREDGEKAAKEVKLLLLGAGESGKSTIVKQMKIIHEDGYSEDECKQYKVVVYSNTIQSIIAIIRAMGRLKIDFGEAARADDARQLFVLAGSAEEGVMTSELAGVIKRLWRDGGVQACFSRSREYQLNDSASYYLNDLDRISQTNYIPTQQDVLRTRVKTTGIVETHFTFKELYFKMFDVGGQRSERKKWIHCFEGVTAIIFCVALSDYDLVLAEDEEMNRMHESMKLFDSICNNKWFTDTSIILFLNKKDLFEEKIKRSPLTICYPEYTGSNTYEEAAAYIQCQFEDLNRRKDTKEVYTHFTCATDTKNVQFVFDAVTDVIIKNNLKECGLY
# HCMV UL50-53 inh: inhibitors of HCMV UL50-UL53 nuclear egress complex interaction | HTRF UL50-UL53 interaction, normalized percent inhibition | inhibition, % (concentration not given with the values) | 0.15% of 190,000 active;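 active = both replicates at 50% or more, plus weaker picks with an unusually low signal ratio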;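 also: stock transfer was 100 nL into about 20 µL; 0% = negative control wells and 100% = wells with untagged competitor protein; inactives centre near -12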
# Sa growth inh second temp: recorded beside Sa growth inh, whose call it bears; relative growth, %; measured here: growth at 30 °C;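 optical density after 20 h as mean of two plates; 100% = untreated growth and lower means inhibition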
# Numbers without * were called inactive; / = no result given; & = joins results of further samples. This is a random part of the collection. About 0.85% of those tested had a hit in this group.
SMILES,Sa growth inh,Sa growth inh second temp,GIV Gai3 FP,HCMV UL50-53 inh
CCOC(=O)c1ccc(NC2=CC(c3ccc(OCC)cc3)N(c3ccc(C(=O)OCC)cc3)C2=O)cc1 (stereo unspecified),97,95,103,-4
CCc1ccc(NC(=O)Cn2c(=O)n(CC3CCCO3)c(=O)c3cc(OC)c(OC)cc32)cc1 (stereo unspecified),108,88,103,-11
COc1ccc(Br)cc1CNC(=O)Cn1nc(C)n2c(cc3cc(F)ccc32)c1=O,113,84,105,-35
C=Cc1ccc(Cn2c(C)c(CNCc3ccc(SC)cc3)c(C(=O)O)c2C)cc1,88,100,105,1
CCOCCn1c(=NC(=O)c2ccc3c(c2)OCCO3)sc2cc(OCC)ccc21,93,90,104,/
COc1ccccc1C1OC(=O)C[C@H]1C(=O)Oc1cccc(C(F)(F)F)c1 (stereo partly specified),96,99,107,27
CC1CCN(C(=O)Cc2noc3ccccc23)CC1,95,89,98,/
Cc1ccc(-c2nnc(SCC(=O)N3CCC(C)CC3)o2)cc1,/,/,106,8
O=C1c2ccccc2C2(CCCC2)C(=O)N1Cc1ccccc1,/,/,101,-13
CC(C)C1N(C(=O)CN2CCN(C)CC2)CCCN1S(=O)(=O)c1ccccc1 (stereo unspecified),86,89,101,8
Cc1cccc(CN2C(=O)c3ccccc3Sc3ccc(C(=O)NCCCN4CCOCC4)cc32)c1,47,0,96,/
C=CC1OCC2(CO1)C(C)C=C(C)CC2C (stereo unspecified),92,84,101,-22
CC(c1ccccc1)n1cc(C(=O)NCCCN2CCCC2=O)nn1 (stereo unspecified),114,82,105,15
CN(C)c1ccc(/C=C(/NC(=O)c2ccccc2)C(N)=O)cc1,88,80,118,-72
Cc1nc2c3ccccc3n3c(CCCC(=O)NCc4ccccc4Cl)nnc3n2n1,/,/,102,-34
CCOC(=O)c1sc(N)c(C#N)c1CSc1nnc(Nc2c(C)cccc2C)s1,55,64,/,-11
COc1cccc(CNC(=O)CCCc2cccs2)c1,91,92,/,-20
O=C(Nc1ccc2c(c1)CCC2)c1cc(=O)[nH]c2ccccc12,113,83,/,-21
COC(=O)c1ccc(NS(=O)(=O)c2cc(F)ccc2CN2C(=O)c3cccnc3C2=O)cc1,/,/,99,-4
Cc1ccc(CNCc2ccc(C(=O)O)s2)cc1,100,86,103,-8
COc1ccc(O)c(C(=O)c2cc(C#N)c(=O)n(C(C)C)c2)c1,82,85,/,-22
COc1cc(NC(=O)C2CCC(=O)N2S(=O)(=O)c2ccccc2)cc(OC)c1 (stereo unspecified),/,/,104,-27
COC(=O)c1nnn(CC(=O)NC(=O)Nc2c(C)cccc2C)c1C(=O)OC,86,83,97,-2
CC(C)NC(=S)N/N=C/c1ccc(N2CCOCC2)cc1,89,97,/,-30
C=C/C=C(\C=C(C)C)N(C(=O)NC1CCCCC1)C1=NCCCS1,67,85,107,12
CN(/N=C/c1ccncc1)C1=NCCN1,100,95,104,/
CCN(CC)c1ccc(C(=O)N2CCC(c3c[nH]c4ccccc34)(c3c[nH]c4ccccc34)CC2)cc1,85,86,102,-38
O=C(O)CCCC(=O)Nc1cccc(C(F)(F)F)c1,120,89,/,3
O=P1(O)C=C(c2ccccc2)NC(c2ccccc2)=C1,82,80,/,-21
CC1(C)CC(=O)C2=C(C1)N(Cc1ccco1)C(=O)C2(NC(=O)c1cccs1)C(F)(F)F (stereo unspecified),97,95,105,-5

# Single records (already shown). Order of values: Sa growth inh, Sa growth inh second temp, GIV Gai3 FP, HCMV UL50-53 inh
# `CN(/N=C/c1ccncc1)C1=NCCN1` across the screens: 100, 95, 104, /
# `COc1cc(NC(=O)C2CCC(=O)N2S(=O)(=O)c2ccccc2)cc(OC)c1` (stereo unspecified) across the screens: /, /, 104, -27
# `O=C(O)CCCC(=O)Nc1cccc(C(F)(F)F)c1` across the screens: 120, 89, /, 3

# Next records:
SMILES,Sa growth inh,Sa growth inh second temp,GIV Gai3 FP,HCMV UL50-53 inh
O=C1c2ccncc2C(=O)N1CO,69,84,106,/
Cc1ccc(C)c(CSc2nc3ccncc3n2CC(=O)Nc2ccc(N(C)C)cc2)c1,102,91,99,-14
COc1cccc(N2CCN(C(=O)c3ccc(Cn4c(=O)c5cccn5c5cccnc54)cc3)CC2)c1,/,/,104,-24
CCOc1ccc(C(=O)OCc2cc(=O)n3nc(C4CC4)sc3n2)cc1,89,87,109,/
Cn1c(=O)c(=O)n(C)c2cc(N3CCOCC3)c(NS(=O)(=O)c3ccc(F)c(Cl)c3)cc21,113,83,104,/
CCc1ccc2oc(-c3cc(NC(=O)c4cc([N+](=O)[O-])ccc4N4CCOCC4)ccc3Cl)nc2c1,96,90,110,-13
CCN1CCN(C2(CNC(=O)c3oc4ccccc4c3C)CCCCC2)CC1,/,/,103,-15
CSc1nc2ccccc2n1CC(=O)Nc1ccccc1,116,102,/,-6
Oc1cccc(C(O)CNc2c3c(nc4cc(-c5cccc(F)c5)nn24)CCC3)c1 (stereo unspecified),80,90,106,14
O=C(c1cc2c(Cl)ccc3c2n1CCO3)N1CCc2ccccc2C1,97,63,103,-17
CCC(=O)OCCn1c(=O)c2cc3c(=O)n(CCOC(=O)CC)c(=O)c3cc2c1=O,99,104,107,-2
CC(C)c1ccc(NC(=O)c2ccc(F)c(S(=O)(=O)N3CCCC3)c2)cc1,129,93,107,/
c1ccc(-c2ccc(COc3ccc(-c4nnco4)cc3)cc2)cc1,94,101,/,-4
COC(=O)c1ccccc1NC(=O)C1CCCCC1C(=O)O (stereo unspecified),106,82,96,/
CCS(=O)(=O)NCCc1csc2nc(-c3cccc(F)c3)nn12,/,/,102,-25
Cc1cc(C)c2c(c1)c(C)cc1nnc(SCC(=O)Nc3c(C)n(C)n(-c4ccccc4)c3=O)n12,/,/,100,-43
CCn1cc(/C=N/NC(=O)Cc2ccc3c(c2)OCCO3)c2ccccc21,111,90,/,-9
O=C(O)c1ccc(N=Cc2ccc(OC(=O)c3sc4ccccc4c3Cl)cc2)cc1,90,89,/,-7
CCC1C(=O)N=C(SCC(=O)Nc2cc(C)on2)NC1=O (stereo unspecified),/,/,99,-7
CCCCC(CC)C1OCC(CN2CCCC2)O1 (stereo unspecified),95,96,103,-6
COc1ccc(NC(=O)/C=C\C(=O)N(c2ccc(C(C)C)cc2)C(C(=O)NCc2ccco2)c2ccc(F)cc2)cc1 (stereo unspecified),121,89,104,/
Cc1cc(-c2ccc(C(=O)O)s2)c[nH]c1=O,92,95,94,-78
CS(C)(=O)=NC(=O)c1cnn2c(C(F)(F)F)cc(C(F)(F)F)nc12,109,86,105,-5
Cn1c(C2CCCCC2)nc2ccccc21,67,91,106,-1
O=c1c2ccccc2nc2n1CCS2,88,96,100,-42
Cc1cccc(Nc2nnc(SCC(=O)Nc3cc(Cl)ccc3C#N)s2)c1,88,101,/,-38
CCOC(=O)C1=C(C)N=c2s/c(=C/c3ccc(OC)c(OC)c3)c(=O)n2C1c1ccc(OC(C)=O)c(OC)c1 (stereo unspecified),/,/,97,5
Cc1nc2c3ccccc3nc(NNC(=O)CCC(=O)NC3CCCC3)n2n1,111,90,104,-12
CC(=O)Nc1cc(-c2ccccc2)[nH]n1,93,90,103,0
CC(=O)N1CCC(C(=O)Nc2ccccc2)(N(Cc2ccccc2)C(=O)c2cccnc2)CC1,102,94,/,11
CCCCNC(=O)c1cc(=O)[nH]c2ccc(S(=O)(=O)N3CCC(C)CC3)cc12,103,90,101,-28
COC(=O)c1sccc1NC(=O)Nc1ccccc1F,107,102,107,4
CN(C(=O)/C=C/c1cccs1)c1ccccc1,125,81,/,-56
CCc1nn(C(C)C(=O)N2CCN(c3cccc(C(F)(F)F)c3)CC2)c(=O)c2cc3occc3n12 (stereo unspecified),97,92,108,5
COc1ccc(Oc2ncccc2NC(=O)c2ccccc2C(F)(F)F)cc1,140,98,98,2
O=C(O)c1cc(S(=O)(=O)NN(Cc2ccccc2)c2ccccc2)ccc1O,99,94,/,-17
CC1=C(C(=O)NCc2ccccc2)C2(CCCCCC2)OC1=O,94,86,101,-12
O=C(O)CCc1ccc(-c2ccccc2)n1Cc1ccco1,97,95,101,1
CN1C(C(=O)Nc2ccc(F)cc2F)=CC(c2cccs2)=NS1(=O)=O,94,86,110,-40
COc1ccc(-c2noc(-c3cccc(OCC(=O)N4CCCC4)c3)n2)cc1,/,/,106,-22
Cc1ccc(S(=O)(=O)N(CC(=O)N2CCN(c3ccccc3)CC2)c2ccccc2F)cc1,/,/,95,-11
CC(=O)Nc1ccc(C(=O)COc2ccc(-c3nnco3)cc2)cc1,85,93,/,3
COc1ccc(S(=O)(=O)N2CCN(C(=O)c3cc4c(s3)CCC4)CC2)cc1,74,93,/,-11
Cc1cc(C)c(S(=O)(=O)NCC(c2ccco2)N2CCN(c3ccccc3)CC2)c(C)c1 (stereo unspecified),106,90,93,/
CC1(C(=O)O)CCC(c2nc3c4ccccc4ncn3n2)C1(C)C (stereo unspecified),84,81,/,-21
CC(=O)Nc1cc(C(=O)Nc2cccc(-c3noc(C)n3)c2)ccc1C,/,/,106,-10
CN(C)C(CNC(=O)Cn1cnc2ccccc2c1=O)c1ccccc1 (stereo unspecified),102,93,/,6
CCC(=O)C1=C(c2cccc([N+](=O)[O-])c2)N(C(=O)CC)n2c(nnc2C2CCCCC2)S1,121,88,99,/
COc1ccccc1Cn1c(CNS(=O)(=O)c2ccc(Cl)s2)nc2cccnc21,85,70,112,/
COc1ccc(C)cc1NC(=O)CSc1nc(=O)n(Cc2ccco2)c2c1CCC2,93,86,106,/
COC(=O)CNC(=O)c1cc2c(=O)oc3ccccc3c2s1,111,89,104,/
CC(=O)OC(C(=O)N(C)c1nnc(-c2ccc(C)cc2)s1)c1ccccc1 (stereo unspecified),74,75,106,-8
c1ccc(CC2CCN(Cc3nnc(-c4ccccc4)o3)CC2)cc1,122,79,107&108,-29
O=C(NCc1cccnc1)c1nn(-c2ccc(Cl)cc2)nc1CO,103,92,102,-24
COc1ccc(NC(=O)c2oc3ccccc3c2NC(=O)Cc2ccc(F)cc2)c(OC)c1,108,87,105,-8
Fc1cnc(Nc2ccccc2)nc1N1CCOCC1,109,86,/,-1
COc1ccccc1CC(=O)NC1CC2CCC(C1)N2C (stereo unspecified),95,85,96,-8
CC(C)n1c2ccccc2c2ccccc21,112,98,93,-5
c1ccc(-c2csc(NC3CCCCC3)n2)cc1,99,71,/,-15
CCOC(=O)c1c(C)c(-c2ccccc2)n(CC(=O)N2CCC(C)CC2)c1C,/,/,103,-10
# The results go on.
SMILES,Sa growth inh,Sa growth inh second temp,GIV Gai3 FP,HCMV UL50-53 inh
COc1ccc(N(CC(=O)Nc2ccc(Br)cc2)S(=O)(=O)c2ccc(C)cc2)cc1OC,/,/,102,-10
C=CCn1c(=O)c2ccc(C(=O)NCC(C)C)cc2n2c(=O)n(CC(N)=O)nc12,/,/,102,-7
CCN(CC)c1ccc2cc(S(=O)(=O)c3ccc(F)c(Cl)c3)c(=O)oc2c1,100,81,56*,-1
N#Cc1c(-c2ccccc2)[nH]c(=S)[nH]c1=O,103,101,95,-2
O=C1NCCCCC1N=CNO (stereo unspecified),101,88,105,-10
COc1ccc(S(=O)(=O)NCCS(=O)(=O)N2CCN(c3ccccc3F)CC2)cc1,117,101,109,/
O=C(O)c1cnn2c(-c3ccccc3)ccnc12,82,77,101&104,-70&-40
O=C(Sc1ccccn1)c1cnn(-c2ccccc2)c1C(F)(F)F,55,30,105,-3
O=c1[nH]ncn2nc(-c3ccc(F)cc3)cc12,90,97,104,9
CCCCNC(=O)c1cn(C2CCCC2)c(=O)c2c1c1ccccc1n2C,78,89,97,-30
COCCCNC(=O)Cn1c(=O)nc(-c2ccccc2)c2ccccc21,95,92,109,/
COc1ccc(C#N)cc1,94,86,/,-22
CC1(C)CC(=O)C2=C(C1)Nc1ccccc1N(C(=S)Nc1cccc(Cl)c1)C2c1ccco1 (stereo unspecified),84,115,/,-1
Cn1c(=NC(=O)C2CC(=O)N(c3ccc4c(c3)OCCO4)C2)sc2ccccc21 (stereo unspecified),72,93,/,-7
Cc1ccc(N2C(=O)C3ON(c4ccccc4)C(c4ccco4)C3C2=O)cc1 (stereo unspecified),90,81,100,-23

# In the list so far, these contain a CF3 group.
SMILES,Sa growth inh,Sa growth inh second temp,GIV Gai3 FP,HCMV UL50-53 inh
COc1ccccc1C1OC(=O)C[C@H]1C(=O)Oc1cccc(C(F)(F)F)c1 (stereo partly specified),96,99,107,27
O=C(O)CCCC(=O)Nc1cccc(C(F)(F)F)c1,120,89,/,3
CC1(C)CC(=O)C2=C(C1)N(Cc1ccco1)C(=O)C2(NC(=O)c1cccs1)C(F)(F)F (stereo unspecified),97,95,105,-5
CS(C)(=O)=NC(=O)c1cnn2c(C(F)(F)F)cc(C(F)(F)F)nc12,109,86,105,-5
CCc1nn(C(C)C(=O)N2CCN(c3cccc(C(F)(F)F)c3)CC2)c(=O)c2cc3occc3n12 (stereo unspecified),97,92,108,5
COc1ccc(Oc2ncccc2NC(=O)c2ccccc2C(F)(F)F)cc1,140,98,98,2
O=C(Sc1ccccn1)c1cnn(-c2ccccc2)c1C(F)(F)F,55,30,105,-3

# Next section:
SMILES,Sa growth inh,Sa growth inh second temp,GIV Gai3 FP,HCMV UL50-53 inh
CCOc1ccc(S(=O)(=O)Nc2cccc(C)c2)c2cccnc12,99,89,100,-1
O=C(NCc1ccc2c(c1)OCO2)c1ccc2c(=O)nc3c(-c4cccc(F)c4)n[nH]n3c2c1,/,/,117,-196
CCN(CC)S(=O)(=O)c1ccc2oc(SCC(=O)c3cc4ccccc4o3)nc2c1,96,85,/,-10
O=C(NC1CCCC1)c1ccc(CN2CC(=O)N3CSCC3C2=O)cc1 (stereo unspecified),/,/,109,-10
